Beta cell apopt – blocks beta cell apoptosis; INS-1E cytokine-induced death, ATP luminescence, 48 h; percent of positive-control rescue, neutral wells zero; protection from apoptosis, % (no concentration beside the values); hit rate 0.8% among 300,000; AID 435005;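 active means all replicates at 75% or more, or half of them and the mean; inconclusive means half reach 75% but not the mean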;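 further: 0% = cytokine-treated negative control wells and 100% = positive control rescue; higher means more ATP so stronger rescue from cytokine killing; wells of about 40 µL received 100 nL stock; the first replicate is given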
MLL AF4-AF9 inh – inhibitors of human MLL-AF4/AF9 interaction; inhibition, % at 10 µM; AlphaScreen, biotin-AF4 peptide binding to FLAG-AF9; AID 651704; hit rate 0.47% among 350,000;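 active means every replicate reaching a set inhibition limit, whatever the replicate mean, cut at about 25% in these data; inconclusive means mean inhibition reaches that limit but some replicates miss it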;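 further: 0% = plate neutral control median and 100% = total signal loss; the record names both 10 and 1 µM as test concentration; the first replicate is given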
Target sequence (P42568 whole entry, looked up): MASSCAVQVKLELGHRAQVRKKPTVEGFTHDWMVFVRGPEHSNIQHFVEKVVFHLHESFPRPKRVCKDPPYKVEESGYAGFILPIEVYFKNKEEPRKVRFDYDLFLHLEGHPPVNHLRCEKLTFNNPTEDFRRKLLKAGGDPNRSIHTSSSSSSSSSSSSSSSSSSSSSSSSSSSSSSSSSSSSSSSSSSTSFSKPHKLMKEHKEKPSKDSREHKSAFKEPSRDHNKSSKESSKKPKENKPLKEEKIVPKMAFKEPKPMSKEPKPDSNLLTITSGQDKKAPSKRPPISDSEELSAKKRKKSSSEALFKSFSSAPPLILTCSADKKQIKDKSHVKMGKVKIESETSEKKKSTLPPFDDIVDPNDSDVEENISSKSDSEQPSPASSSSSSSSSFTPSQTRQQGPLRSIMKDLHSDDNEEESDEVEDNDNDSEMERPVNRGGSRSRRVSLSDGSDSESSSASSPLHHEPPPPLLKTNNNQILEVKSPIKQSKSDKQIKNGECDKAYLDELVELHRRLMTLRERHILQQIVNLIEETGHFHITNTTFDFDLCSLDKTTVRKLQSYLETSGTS
Calb FLC – affects C. albicans growth with fluconazole | AID 1979 | hit rate 0.57% among 300,000 | growth inhibition, % (concentration not given with the values) | C. albicans CaCi-2 (fluconazole-resistant clinical isolate) + fluconazole, Alamar Blue growth, 48 h;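 active means most replicates above 75%; inconclusive means exactly half above 75%; inactive means most below 75%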;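 further: all wells also contain fluconazole at 8 µg/ml as a sub-toxic cotreatment; 0% = median of DMSO wells and 100% = median of geldanamycin control wells; wells of about 8 µL received 7.5 nL stock; the first replicate is given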
RanGTP-Imp inh – disruptors of Ran-importin-beta complex formation – biochemical, FRET, CFP-Ran, YFP-importin-beta, homogeneous, primary screen | cell-free CFP-Ran/YFP-importin-beta FRET ratio | inhibition, % (test concentration not listed) | hit rate 1.1% among 300,000;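 active means most replicates above 15%; inconclusive means exactly half above 15%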;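 further: 0% = DMSO wells and 100% = Ran loaded with GDP instead of GTP; wells of about 40 µL received 100 nL stock; the first replicate is given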
Ecoli rRNA inh – selective bacterial rRNA inhibition in E. coli | E. coli WT GFP vs humanized-ribosome RFP mutants, fluorescence, 24 h; stronger effect = lower value; DMSO median 0, no signal -100 | GFP signal change (wild-type ribosome), % (no concentration beside the values) | hit rate 1.6% among 350,000 | AID 720706;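 active means significant combined selectivity score with lowered wild-type GFP, culture density cut under 30%, mutant RFP and density less affected; inactive means any of these conditions unmet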; further: one replicate is shown; some compounds called inactive have numbers as strong as hits
T cruzi inh – blocks replication of Trypanosoma cruzi | T. cruzi beta-gal in NIH3T3, luminescence, 90 h | inhibition, % (concentration not given with the values) | hit rate 1.4% among 300,000;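 active means mean inhibition across valid replicates above about 55%, limit read from the data; inconclusive means mean below that limit but half or more replicates reach it; inactive means mean below it, under half of replicates reach it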;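 further: signal also drops with host cell toxicity which is not excluded here; 0% = plate median of DMSO wells and 100% = zero luminescence signal; higher percent means less beta-gal luminescence so fewer parasites; stock transfer was 50 nL into about 50 µL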
FGF22 binding – shifts melting point of recombinant human FGF22 | hit rate 1.5% among 340,000 | calls only at 9.99 µM | Q9HCT0 | recombinant FGF22 thermal shift, SYPRO orange fluorescence; percent of sucrose octasulfate shift, DMSO zero;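 active means melting point raised past a set limit in the mean and every replicate; inconclusive means no clear call; three in four hits are not shown here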
Target sequence (Q9HCT0 whole entry, looked up): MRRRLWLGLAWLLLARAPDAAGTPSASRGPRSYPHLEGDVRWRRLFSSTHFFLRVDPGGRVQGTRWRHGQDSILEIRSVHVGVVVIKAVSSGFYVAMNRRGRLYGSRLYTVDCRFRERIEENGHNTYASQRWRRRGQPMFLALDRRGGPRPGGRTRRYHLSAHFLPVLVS
ALR H2O2 inh – human ALR oxidase inhibition via reduced H2O2. P55789. purified ALR, DTT oxidation, H2O2 HRP-luminol luminescence. inhibition, % (test concentration not listed). hit rate 3.8% among 290,000. AID 485317;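 active means mean and each replicate at 75% or more; inconclusive means only one of the two met; inactive means neither met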;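 further: stock transfer was 7.5 nL into about 7.5 µL; 0% = neutral wells and 100% = wells with inactivated enzyme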
Target sequence (P55789 whole entry, looked up): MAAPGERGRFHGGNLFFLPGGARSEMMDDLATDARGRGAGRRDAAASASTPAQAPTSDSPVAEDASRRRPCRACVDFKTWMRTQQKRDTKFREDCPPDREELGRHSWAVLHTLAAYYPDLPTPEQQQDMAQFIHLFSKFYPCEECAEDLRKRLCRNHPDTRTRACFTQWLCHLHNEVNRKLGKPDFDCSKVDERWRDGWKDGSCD
Ecoli rRNA inh OD600 – recorded beside Ecoli rRNA inh, whose call it bears; OD600 change, %; measured here: OD600 growth;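 optical density of the mix in the first replicate; 0 = DMSO median and -100 = no signal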
Ecoli rRNA inh RFP – recorded beside Ecoli rRNA inh, whose call it bears; RFP signal change, %; measured here: RFP humanized mutant strains;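 first replicate; 0 = DMSO median and -100 = no signal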
* hit, by the source's call; i = inactive; ? = inconclusive; . = not tested or not shown. These rows are one share of the data; the hit share may differ from the screen's.

SMILES	Beta cell apopt	MLL AF4-AF9 inh	Calb FLC	RanGTP-Imp inh	Ecoli rRNA inh	Ecoli rRNA inh OD600	Ecoli rRNA inh RFP	T cruzi inh	FGF22 binding	ALR H2O2 inh
CC1=C(C(=O)OCc2ccccc2)C(c2ccccc2)NC(=O)N1CCCCCC(=O)O (stereo not drawn)	-6.6	-14.9	-5.4	-2.8	-28.1	-19.5	-17.4	0.2	i	9.6
CCOC(=O)C1(Cc2cccc(OC)c2)CCN(CC2CC=CCC2)CC1 (stereo not drawn)	2.3	3.1	15.8	8.5	-6.3	-14.7	-1.7	23.7	i	-3.7
CCCn1c(=O)c(Br)cn(-c2ccccc2C)c1=O	-6.8	1.1	-10.5	-3.4	5.2	2.0	-1.7	6.6	i	6.9
Cc1ccc(OCCC(=O)OCC(=O)Nc2ccc(F)cc2)cc1	.	2.2	-2.3	0.4	-2.0	-6.4	-2.7	-8.3	i	.
CC(=O)N(CN1C(=O)c2ccc([N+](=O)[O-])cc2C1=O)c1ccc(F)cc1	.	.	-9.2	3.4	.	.	.	4.7	.	-19.1
Cc1cc(C)c(OCC(=O)Nc2nnn(C)n2)c(Br)c1	-2.7	.	6.6	-2.2	.	.	.	-16.2	.	-2.4
O=C(c1ccc([N+](=O)[O-])cc1)N(Cc1ccc(Cl)cc1Cl)N1C(=O)CCCC1=O	-1.0	.	-5.6	5.9	.	.	.	6.3	.	-6.4
COC(=O)c1ccccc1S(=O)(=O)N1CCC(C(=O)OC(C)C(=O)NC(N)=O)CC1 (stereo not drawn)	-3.8	-0.6	12.7	0.4	13.4	4.2	1.7	-1.1	i	-4.2
Cc1ccc(S(=O)(=O)N(C)c2nc3ccccc3[nH]c2=S)cc1	-7.4	2.6	2.9	3.4	4.4	2.7	-3.2	-0.9	i	-3.0
COC(=O)c1ccccc1S(=O)(=O)N(Cc1cc2ccc(OC)cc2[nH]c1=O)CC1CCCO1 (stereo not drawn)	1.7	.	7.4	3.0	.	.	.	2.9	.	-2.7
O=[N+]([O-])c1ccccc1-c1ccc(/C=N/n2cnnc2)o1	-3.6	.	2.4	0.2	.	.	.	17.0	.	.
Cc1nc(SCCC(C)C)c([N+](=O)[O-])[nH]1	2.7	.	68.7	4.8	.	.	.	-6.8	.	27.8
CCN(CC)C(=O)c1cc2cc(Br)ccc2oc1=O	-12.0	.	1.2	-3.0	.	.	.	-15.0	.	-4.0
O=c1ccc2cc(S(=O)(=O)Nc3ccccc3F)ccc2o1	1.6	1.1	-10.9	-3.5	7.0	12.1	8.4	-0.7	i	13.1
NNC(=O)c1ccc(COc2ccc(Br)cc2)o1	.	0.1	-12.0	6.1	-4.9	-8.0	2.1	-9.2	i	.
O=C(NCC1CCCN1S(=O)(=O)c1cccs1)c1ccc(Cl)cc1 (stereo not drawn)	.	-0.9	9.6	9.7	-3.1	-2.1	1.3	9.2	i	-9.8
CCOC(=O)C1=C(COC(=O)CCC(=O)c2ccc(C)cc2)NC(=O)NC1C (stereo not drawn)	8.3	-8.3	.	.	5.8	3.5	1.1	.	i	-4.6
CN(CC(=O)N1CCN(c2ccccn2)CC1)S(=O)(=O)c1ccc2ccccc2c1	.	9.6	-5.3	1.9	-25.9	-20.2	15.7	11.2	i	-0.1
CC(=O)c1cc(C#N)c(SCC(=O)OC(C)C)nc1C	4.4	-8.2	-1.8	-1.8	0.0	-2.9	-5.6	10.3	i	-5.7
CN(C1CCCCC1)S(=O)(=O)c1ccc(-c2ccccn2)s1	.	-3.1	-10.9	-0.5	-0.7	-0.7	0.5	23.1	i	-13.2
COC(=O)CNC(=O)CN(c1ccc(OC)cc1OC)S(=O)(=O)c1ccccc1	-5.4	.	.	.	-6.5	3.9	0.3	.	i	-1.6
Cc1ccc(CSCC(=O)N(C)CC(=O)Nc2ccc(Cl)c(Cl)c2)cc1	.	-2.0	-11.4	0.0	6.0	10.7	-0.2	14.2	i	-10.5
CN(C)c1ccc(/C=C/c2ccc3ccccc3n2)cc1	76.2*	.	-2.1	-69.8	7.0	13.2	32.0	49.6	.	44.4
CC1CCN(C(=O)CSCc2ccc(Cl)cc2)CC1	-5.7	.	-1.9	-0.1	.	.	.	-7.3	.	-14.8
Cn1c(=O)c2c(ncn2CC(=O)N2CCOCC2)n(C)c1=O	-1.9	.	-8.6	-1.7	.	.	.	-5.3	.	-14.8
Cc1ccc2c(c1)[nH]c1c(=O)n(CCN3CCCCC3)cnc12	-8.6	.	-8.5	-0.3	.	.	.	-1.2	.	-10.5
OC(c1ccc(Cl)cc1)C(O)c1nc2ccccc2[nH]1 (stereo not drawn)	-5.3	.	25.5	-2.2	.	.	.	-14.2	.	4.0
CCOC(=O)CNc1nc(Cl)nc(Nc2ccc(C)cc2)n1	-4.9	0.1	7.2	?	14.0	0.0	-6.3	-12.0	i	-4.4
COc1ccc(C(=O)NCCn2cc(SCC(=O)Nc3nnc(C)s3)c3ccccc32)cc1	-3.1	10.1	-14.1	3.3	9.0	6.8	-7.8	17.1	i	-5.7
CCCCN1CC2([N+](=O)[O-])C=CC(=O)C([N+](=O)[O-])(C1)C2CC(=O)c1ccccc1 (stereo not drawn)	2.4	.	21.9	5.9	.	.	.	7.1	.	.
O=C1C2C3CCC(C3NCc3ccccc3)C2C(=O)N1Cc1ccccc1 (stereo not drawn)	5.1	.	-5.5	2.1	.	.	.	13.4	.	-2.6
C/C(=N\NC(=O)c1ccc(O)cc1)c1cccc(NC(=O)c2ccccc2C)c1	-3.3	-0.5	10.4	-3.1	-8.8	-3.8	-3.3	-1.7	i	-0.5
Nc1ccc(C(=O)NCC2(c3ccccc3)CCCC2)cc1	-3.4	-5.8	-15.1	.	-3.8	-10.5	7.1	.	i	-7.7
O=C1CC2(CCN(C(=O)c3ccccc3Br)CC2)Oc2ccccc21	2.3	-1.8	-3.9	?	-5.5	-13.8	-2.2	-7.4	i	-1.0
CNc1nc(-c2ccccc2)cc(C(F)(F)F)c1C#N	-3.9	.	-6.8	11.5	.	.	.	0.2	.	-7.9
S=C(NCc1ccco1)Nc1ccc2c(c1)OCCO2	-3.4	-17.6	-1.0	-1.9	9.8	8.2	-0.5	7.4	i	-4.5
CCCCN1C(N)=NC[C@@H]1Cc1ccccc1	-1.9	-0.6	-18.6	-2.7	0.7	26.8	2.7	5.3	i	.
CC(=O)NCC1CCCN(c2nc3nonc3nc2N(C)Cc2ccccc2)C1 (stereo not drawn)	-4.8	2.8	-13.4	-2.3	0.8	-0.4	-0.8	-2.2	i	.
Cc1ccc(Nc2nc(-c3cccnc3)nc3ccccc23)cc1	.	-3.5	1.9	-2.1	33.7	20.1	-3.3	51.8	i	.
COc1ccc(S(=O)(=O)NCCC(=O)Nc2ccc(C)cc2)cc1	0.5	4.1	-7.3	-2.8	4.1	-8.8	3.2	-5.1	i	-4.3
Cc1ccc(NC(=O)c2cc(-c3cc(Cl)ccc3O)n[nH]2)cc1C	-3.4	-2.8	-20.6	8.5	-0.4	2.2	1.5	-11.5	i	-5.8
Cc1cc(N2CCOCC2)nc2ccc(NC(=S)NC(C)C)cc12	6.1	2.7	2.0	?	-18.2	-23.2	-8.8	2.2	i	92.7*
O=C(NC(=S)Nc1ccc(CN2CCCCC2)cc1)c1cccc(OCc2ccccc2)c1	.	20.3	29.7	5.0	-55.4	-79.8	-27.5	72.6*	.	0.1
COc1ccc(Cl)cc1NC(=O)COc1ccc2c(c1)OCO2	-3.2	-7.5	.	.	6.1	8.2	-3.1	.	i	.
O=C(O)CCC(=O)Nc1ccc(Br)cc1C(=O)c1ccccc1	6.0	1.7	-0.2	1.2	8.7	11.3	-1.5	-2.3	i	.
COC(=O)Cc1ccc(NC(=O)c2ccccc2Br)cc1	-3.6	-1.5	2.4	-0.6	7.5	6.6	-8.6	-21.1	i	-2.1
CCOc1ccc(C(=O)N/N=C/c2ccccc2[N+](=O)[O-])cc1	-0.1	.	-0.3	-1.1	.	.	.	6.6	.	20.6
CCOC(=O)C1=C(C)N(c2ccc(OC)cc2)C(=O)/C1=C\c1cccs1	1.1	2.6	6.7	4.5	6.6	-2.0	1.0	16.0	i	-1.3
COc1ccc(C(=O)NC(Cc2ccccc2)c2ccc3c(c2)OCCCO3)cc1 (stereo not drawn)	-1.2	-69.8	-31.7	-2.9	6.0	-4.4	-3.8	19.6	i	-1.2
O=S(=O)(NCc1ccncc1)c1ccccc1	12.1	.	-15.8	-1.9	.	.	.	-34.2	.	-36.2
CCOC(=O)c1c(N)n(-c2ccc(N)cc2)c2nc3ccccc3nc12	3.2	0.0	26.0	0.3	-7.7	2.1	1.8	-2.5	i	46.9
N#Cc1c(-c2ccc(Br)cc2)cc(-c2cccnc2)nc1N	3.4	.	?	0.9	.	.	.	22.1	.	-4.8
CCOc1ccc(NC(=O)CC2C(=O)N(C)C(=S)N2CCCc2ccccc2)cc1 (stereo not drawn)	2.5	-6.0	3.1	1.5	8.2	4.1	0.6	55.1*	i	-2.1
CN(c1ccccc1)c1nc(N)c([N+](=O)[O-])c(NCc2ccccc2)n1	0.7	0.2	2.1	-4.3	-12.1	-13.0	-4.3	15.7	i	.
C=CCN1C(=O)CSC1=Nc1ccc(C(=O)O)cc1	.	-1.8	-8.9	2.8	9.1	8.0	-2.4	-7.2	i	-3.2
O=c1oc2cc(OCc3ccc([N+](=O)[O-])cc3)ccc2c2c1CCCC2	4.0	.	-14.5	4.8	.	.	.	18.9	.	.
Nc1c(S(=O)(=O)c2cccs2)c2nc3ccccc3nc2n1/N=C/c1cccc(O)c1	14.1	.	8.3	-0.2	.	.	.	36.2	.	-12.1
Cc1cccc(C(=O)Oc2coc(CSc3nnc(NC(=O)C4CC4)s3)cc2=O)c1	-3.2	.	-17.2	-2.0	.	.	.	-6.8	.	31.3
CC(=O)c1cnc(N2CCCCC2)nc1C	0.9	.	-0.4	-1.1	.	.	.	-7.6	.	-2.2
CC(=O)Nc1ccc2c(c1)nc(C)n2Cc1ccccc1	.	0.7	2.0	1.3	5.5	11.8	-1.0	1.7	i	-2.3

Continuation.
SMILES	Beta cell apopt	MLL AF4-AF9 inh	Calb FLC	RanGTP-Imp inh	Ecoli rRNA inh	Ecoli rRNA inh OD600	Ecoli rRNA inh RFP	T cruzi inh	FGF22 binding	ALR H2O2 inh
CCCCNC(=O)c1onc(CSc2cccc3ccccc23)c1C(=O)O	-24.8	-2.0	-18.2	-1.3	-50.3	-68.8	-11.3	-6.3	.	98.2*
Cc1ccnc(NC(=O)CCC(=O)N(CC(=O)NC2CCCCC2)c2cccc(C)c2C)c1	-0.4	.	-3.1	-1.1	.	.	.	10.0	.	-8.4
CCCCCOC(=O)c1cc(=O)[nH]c2ccccc12	.	.	-6.4	0.9	.	.	.	1.8	.	-2.7
COc1cccc(-c2nc(-c3ccc4c(c3)-c3ccccc3S4(=O)=O)c(-c3ccccc3)[nH]2)c1OC	15.0	.	5.9	15.5*	.	.	.	39.8	.	-3.1

High-throughput results from PubChem.
